D2 PAM – Beta-Arrestin HTS for Positive Allosteric Modulators of the Human D2 Dopamine Receptor: Potentiators; D(2) dopamine receptor (Homo sapiens), P14416; DiscoveRx D2 beta-arrestin cells, luminescence, 90 min; 100% = 57 uM dopamine signal; potentiation, % (no concentration beside the values); 360,000 tested, 0.23% active; AID 624464, 2012; active = potentiation of 50% or more; inconclusive = 30% to 50%; inactive = 30% or less;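 also: compound concentration not given in the record; tested on top of an EC20 dose of dopamine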
Target sequence (P14416 whole entry, looked up): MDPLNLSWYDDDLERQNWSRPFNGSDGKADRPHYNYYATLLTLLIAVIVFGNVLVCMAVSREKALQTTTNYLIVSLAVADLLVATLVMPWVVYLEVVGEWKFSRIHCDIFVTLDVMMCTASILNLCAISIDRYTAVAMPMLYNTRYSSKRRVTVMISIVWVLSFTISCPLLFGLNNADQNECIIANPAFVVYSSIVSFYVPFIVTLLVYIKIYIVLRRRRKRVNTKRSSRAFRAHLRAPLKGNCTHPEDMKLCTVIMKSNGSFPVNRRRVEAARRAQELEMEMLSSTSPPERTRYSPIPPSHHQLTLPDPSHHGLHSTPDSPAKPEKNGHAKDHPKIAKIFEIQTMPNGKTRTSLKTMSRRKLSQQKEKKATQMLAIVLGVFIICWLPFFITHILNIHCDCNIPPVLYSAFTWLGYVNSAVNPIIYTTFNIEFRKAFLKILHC
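PathHunter beta-arrestin assay in DiscoveRx D2 cells. Compounds were added with an EC20 of dopamine (50 nM final) for 90 min at 37 deg C. Luminescence was read 1 h after detection reagent, with 57 uM dopamine as the EC100 control.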
ClpP mod – qHTS Assay for Activators of ClpP | AID 651965, 2013 | ATP-dependent Clp protease proteolytic subunit (Bacillus subtilis (strain 168)), P80244 | purified B. subtilis ClpP, FRET peptide cleavage, 20 min | Potency, µM (series often up to 57.5 µM), for the others: top-dose activity change, negative = active | 340,000 tested, 1.9% active; active = well fitted falling curve with a large enough effect; inconclusive = small, poorly fitted or top-dose-only effect; inactive = no such curve, though single readings can be large or run the other way; also: potency is read from the fitted curve at half-maximal effect; the source files actives as falling curves though it sought activators and does not explain the sign; nearly all actives have a fitted effect of over 65% in size; many hits overshoot -100%
Target sequence (P80244 whole entry, looked up): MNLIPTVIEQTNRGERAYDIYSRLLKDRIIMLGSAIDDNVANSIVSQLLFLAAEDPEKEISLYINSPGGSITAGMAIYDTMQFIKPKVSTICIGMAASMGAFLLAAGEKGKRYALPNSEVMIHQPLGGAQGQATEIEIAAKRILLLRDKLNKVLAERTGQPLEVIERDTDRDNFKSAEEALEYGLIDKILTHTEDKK
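FRET quenching reversal measured ClpP activation: 10 microg/mL B. subtilis ClpP at pH 8 with the FRET-FV decapeptide, read at 430 nm after 320 nm excitation. The 20-min minus 0-min signal was scaled between DMSO/no-enzyme wells and ADEP (5.8 microM final).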
TRPV1 potentiator – HTS Assay for Compounds that Act as Potentiators of the Vanilloid Receptor 1; potentiation, % at 8.33 µM; TRPV1-expressing cells, Fluo-8 calcium influx, capsaicin EC20 potentiation; host cell line not named in the record; control for the full effect not named in the record; 320,000 tested, 0.02% active; AID 540277, 2011; Transient receptor potential cation channel subfamily V member 1 (Homo sapiens), Q8NER1; active means potentiation above 80%; inconclusive means 30% to 80%; inactive means below 30%; also: 0% is about no effect
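Fluo-8 calcium influx in TRPV1-expressing cells, kinetic read (ex 480/em 520 nm). Compound added and read 3 min for agonist activity, followed by capsaicin at EC20 final and 2 min further read for enhancement.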
Menin-MLL FL inh – qHTS Assay for Inhibitors Targeting the Menin-MLL Interaction in MLL Related Leukemias: Competition With Fluorescein Labeled MLL-derived Peptide | 290,000 tested, under 10 active | AID 1766, 2009 | Fluorescence polarization, fluorescein-MLL peptide displacement from menin | FP activity change, % at 61.4 µM; inconclusive = falling polarisation curve, or a change in total fluorescence; inactive = total fluorescence flat and polarisation flat or rising; no compound was filed as active; the % refers to the polarisation; negative = inhibition;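 also: % of control where 0% means no effect; inhibitors lower the polarisation; unlabelled MLL peptide was the positive control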
gsp antag – qHTS for Antagonists of gsp, the Etiologic Mutation Responsible for Fibrous Dysplasia/McCune-Albright Syndrome: qHTS; gsp-mutant cells, cAMP HTRF, 30 min; control for the full effect not named in the record; Potency, µM (series often up to 76.9 µM), without a hit: at the top dose activity change, negative = inhibition, usual class: inhibitors; 340,000 tested, 0.4% active; active = falling curve of any shape with a large fitted effect; inconclusive = falling curve, mostly with a smaller effect; inactive = flat or rising curve; cell line not stated here;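 also: intracellular cAMP measured with PDE inhibitor Ro 20-1724 present during compound exposure; potency is read from the fitted curve at half-maximal effect; % is scaled to controls: 0 for no effect and ±100 for the full control effect; nearly all actives have a fitted effect of over 65% in size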
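HTRF cAMP measurement after 30 min RT detection following 30 min, 37C compound treatment alongside […] (added as 300 uM solution) in G418-selected cells seeded at 2000/well and grown 16–24 h.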
gsp ag – qHTS for Agonist of gsp, the Etiologic Mutation Responsible for Fibrous Dysplasia/McCune-Albright Syndrome: qHTS | Potency, µM (highest dose often 76.9 µM), without a hit: at the top dose activation (cAMP increase), most hits filed as activators | gsp mutant cells, cAMP HTRF, 30 min; control for the full effect not named in the record | 340,000 tested, 0.13% active | AID 624287, 2012; active = well fitted activation curve with a large enough effect; inconclusive = small, poorly fitted or top-dose-only effect, or another doubt; inactive = no such curve, though single readings can be large or run the other way; cell line not stated here;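 also: phosphodiesterase inhibitor Ro 20-1724 added with compounds to block cAMP breakdown; potency is read from the fitted curve at half-maximal effect; nearly all actives have a fitted effect of over 60% in size; about a fifth of the inactives were tested at one dose only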
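Cells in DMEM/10% FBS with G418 were pretreated with compounds in DMSO plus […] (300 uM stock) for 30 min at 37C. cAMP was measured by HTRF (cAMP-d2 plus anti-cAMP antibody-K) after 30 min at room temperature.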
Sfp PPTase inh – qHTS Assay for Inhibitors of Bacillus subtilis Sfp phosphopantetheinyl transferase (PPTase); Biochemical Sfp PPTase activity, qHTS; Potency, µM, for the others: max response, negative = inhibition, most hits filed as inhibitors; 310,000 tested, 3.5% active; active = well fitted inhibition curve with a large enough effect; inconclusive = small, poorly fitted or top-dose-only effect, or another doubt; inactive = no such curve, though single readings can be large or run the other way;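 also: the enzyme is Sfp with the accession as filed and its product quenches rhodamine fluorescence; potency is read from the fitted curve at half-maximal effect; 0% = enzyme reaction without inhibitor and -100% = no enzyme wells; top concentration of the series not given in the record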
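Compounds were incubated with enzyme (final 15 nM) for 15 min at room temperature before substrate addition started the reaction. Fluorescence at 525 nm excitation, 598 nm emission was recorded immediately and after 30 minutes.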
* = called active by the depositor; ? = inconclusive; / = no result given; [ ] = dose if it differs, or a comment. Not a hit list. Share with any hit: about 5.1%.

Every second line gives: gsp antag	gsp ag	Sfp PPTase inh	ClpP mod	TRPV1 potentiator	Menin-MLL FL inh	D2 PAM
- O=C(CCSc1ccccc1)Nc1nnc(-c2ccccc2)o1
 : 6%	-10%	7%	-1.5%	6	-1.9	-3
- Cc1cc(-c2ccc(Cl)cc2)n2nc(N)nc2n1
 : -1%	11%	4%	18µM*	3	1.5	-4
- Cn1c(SCc2ccccc2)nnc1-c1ccc2nonc2c1
 : -2%	6%	0%	/	-4	-4.2	-2
- CC(C)(C)n1nnnc1C(c1cccs1)N(Cc1ccccc1)Cc1cccnc1 (stereo not given)
 : 5%	11%	2%	0.3%	-11	0.3	0
- COc1ccc(OC)c2c1nc1n2CCS1
 : 10%	2%	-21%	-1.3%	-9	1.8	-4
- O=C(CSc1ncnc2nc[nH]c12)c1ccccc1
 : -15%	-4%	16µM*	-1.6%	7	0.7	-21
- COc1ccc(C(=O)N2CC=C(c3ccccc3)CC2)cc1S(=O)(=O)N1CCOCC1
 : -12%	-53%[inhibitor]	23%	-2.8%	/	-2.5	2
- COc1ccccc1CN(C)C(=O)c1cc2ccccc2o1
 : -15%	0%[15.4 µM]	1%	/	-19	3.5	0
- CCCN1CCN(S(=O)(=O)c2ccc(OC)c(Br)c2)CC1
 : 11%	-19%	1%	-2.4%	-18	3.5	-9
- CC(=O)c1cccc(NC(=O)CCCSc2ccccc2)c1
 : -8%	?	10%	/	-25	-3.8	-11
- O=C(Nc1c(-c2ccccc2)nc2ccccn12)c1ccco1
 : 2%	-17%	29%	-0.8%	9	-0.7	-8
- COc1ccc(-c2sc3ccc(N4CCOCC4)cc3c2C#CC2(O)CCCCC2)cc1
 : -5%	/	/	25µM*	/	/	-14
- COc1ccccc1NC(=S)NCCN1CCOCC1
 : 12%	0%	-2%	-1.5%	15	/	-3
- CCC1=C[C@@H]2CN(C1)Cc1c([nH]c3ccccc13)[C@@](C(=O)OC)(c1cc3c(cc1OC)N(C)[C@H]1[C@@](O)(C(=O)OC)[C@H](OC(C)=O)[C@]4(CC)C=CCN5CC[C@]31[C@@H]54)C2
 : /	/	14µM*	0.6%	/	-2.9	/
- C=CCN(C(=O)c1csnn1)C(C(=O)NCc1ccc(F)cc1)c1ccccc1 (stereo not given)
 : 1%	?	-2%	/	-11	-0.1	-1

Single records, from the list above. Values in the order: gsp antag	gsp ag	Sfp PPTase inh	ClpP mod	TRPV1 potentiator	Menin-MLL FL inh	D2 PAM
Listed for O=C(Nc1c(-c2ccccc2)nc2ccccn12)c1ccco1 : 2%	-17%	29%	-0.8%	9	-0.7	-8
Listed for CCC1=C[C@@H]2CN(C1)Cc1c([nH]c3ccccc13)[C@@](C(=O)OC)(c1cc3c(cc1OC)N(C)[C@H]1[C@@](O)(C(=O)OC)[C@H](OC(C)=O)[C@]4(CC)C=CCN5CC[C@]31[C@@H]54)C2 : /	/	14µM*	0.6%	/	-2.9	/

The listing picks up; the 4 compounds before the break are reprinted first.
Every second line gives: gsp antag	gsp ag	Sfp PPTase inh	ClpP mod	TRPV1 potentiator	Menin-MLL FL inh	D2 PAM
- COc1ccc(-c2sc3ccc(N4CCOCC4)cc3c2C#CC2(O)CCCCC2)cc1
 : -5%	/	/	25µM*	/	/	-14
- COc1ccccc1NC(=S)NCCN1CCOCC1
 : 12%	0%	-2%	-1.5%	15	/	-3
- CCC1=C[C@@H]2CN(C1)Cc1c([nH]c3ccccc13)[C@@](C(=O)OC)(c1cc3c(cc1OC)N(C)[C@H]1[C@@](O)(C(=O)OC)[C@H](OC(C)=O)[C@]4(CC)C=CCN5CC[C@]31[C@@H]54)C2
 : /	/	14µM*	0.6%	/	-2.9	/
- C=CCN(C(=O)c1csnn1)C(C(=O)NCc1ccc(F)cc1)c1ccccc1 (stereo not given)
 : 1%	?	-2%	/	-11	-0.1	-1
- CCCC1C(=O)N(c2ccccc2)C1c1ccccc1 (stereo not given)
 : -14%	-3%	3%	-2.2%	-18	4.7	-9
- O=C(NCCCN1CCOCC1)c1cccc(S(=O)(=O)N2CCc3ccccc3C2)c1
 : 4%	8%	?	/	0	-1.6	-5
- N/C(=N\OC(=O)c1cnn(-c2ccccc2)c1C(F)(F)F)c1ccc(C(F)(F)F)cc1
 : 0%	1%[15.4 µM]	0%	10%	4	-3.4	?
- O=C(c1ccc(N2CCN(S(=O)(=O)c3ccccc3)CC2)c([N+](=O)[O-])c1)N1CCOCC1
 : -18%	-6%	5%	0.7%	-16	8.2	-14
- Oc1ccccc1-c1nc(NCc2cccnc2)c2ccccc2n1
 : ?	-27%	-19%	3.7%	1	0.2	-13
- CCS(=O)(=O)c1nc(S(=O)(=O)c2ccc(C)cc2)c(NCCCN2CCOCC2)s1
 : 16%	22%	5%	-0.5%	3	-1.8	-15
- CCCCCc1nnc(NC(=O)C2COc3ccccc3O2)s1 (stereo not given)
 : 1%	-29%[15.4 µM]	13%	/	-12	3.7	1
- COC(=O)c1sccc1NC(=O)C1CC(C)=C(C)CC1C(=O)O (stereo not given)
 : -7%	7%[15.4 µM]	5%	/	0	3.0	-3
- Cc1sc2ncn(CC(=O)OC(C)C(=O)NC(C)(C)C)c(=O)c2c1C (stereo not given)
 : 0%	?	-2%	-0.3%	3	2.8	-11
- CN(Cc1ccccn1)C(=O)C1CCC(=O)N(Cc2cccc(C(F)(F)F)c2)C1 (stereo not given)
 : 10%	13%	15%	-0.1%	3	-2.1	-2
- COC(=O)c1cc(-c2ccc(Cl)cc2Cl)n[nH]1
 : -1%	-9%	13%	1.3%	5	2.6	-3
- Cc1nc(C)c(Cc2ccccc2Cl)c(=O)[nH]1
 : 7%	?	25%	0.7%	11	3.1	-14
- COc1ccccc1NC(=O)N1CCN(c2ncccn2)CC1
 : -10%	?	12%	-1.3%	27	4.3	-7
- CC(NC(=O)CCC(=O)NC(C)c1ccccc1)c1ccccc1 (stereo not given)
 : 14%	-6%	22%	-1.4%	14	-8.5	-5
- O=[N+]([O-])c1cccc(-c2nc(-c3ccccc3)c(-c3cccs3)[nH]2)c1
 : 0%	?	6%	-1.4%	5	1.4	-8
- O=C(c1ccc2c(=O)n(CCc3ccccc3)c(=O)[nH]c2c1)N1CCN(c2ccccc2)CC1
 : ?	-6%[15.4 µM]	12%	12%	-2	0.1	-1
- CN(Cc1ccc(Cl)cc1Cl)C(=O)C1CC(=O)N(Cc2ccco2)C1 (stereo not given)
 : /	-34%[inhibitor]	/	-0.1%	/	/	-8
- COc1cc2c(cc1NC(=O)c1ccncc1)oc1ccccc12
 : ?	-9%	-11%	-7.8%	-8	1.9	-4
- CCOC(=O)C1=C(c2ccccc2)Nc2ncnn2C1c1ccccn1 (stereo not given)
 : -1%	24%	-4%	-1.2%	11	3.2	-2
- COc1cccc(NC(=S)N2CCC(c3ccc(C)cc3)C2)c1 (stereo not given)
 : -2%	11%[15.4 µM]	17%	/	-3	11	-6
- O=C(c1cc(=O)c2ccccc2o1)N1CCN(c2ccccc2F)CC1
 : -2%	-4%[15.4 µM]	-14%	/	16	1.3	-1
- COC(=O)[C@@]1(Cc2ccc(OC)cc2)[C@H]2c3cc(C(=O)N4CCCC4)n(Cc4cc(C)n(C)n4)c3C[C@H]2CN1C(=O)c1ccccc1
 : /	/	7%	-2.4%	/	0.3	/
- O=C(CC12CC3CC(CC(C3)C1)C2)N/N=C/c1ccc([N+](=O)[O-])o1
 : 4%	11%	2%	0.8%	-1	5.1	8
- Cc1ccc(OCC(=O)N(C)CC(=O)Nc2ccc(F)c(F)c2F)cc1
 : 2%	-29%[15.4 µM]	/	-9.2%	7	/	-9
- COc1ccc(/C=N\NC(=O)c2ccccc2Cl)cc1COc1c(F)c(F)c(F)c(F)c1F
 : -15%	18%[15.4 µM]	17%	-8.0%	-13	/	-12
- COc1ccc(Cl)cc1NC(=O)C/C(C)=N/NC(=O)C(=O)NCc1ccccc1
 : 2%	10%[15.4 µM]	11%	-1.9%	3	-6.9	-6
- Cc1nc(NCCc2ccccc2)c2nnn(Cc3ccccc3)c2n1
 : -2%	?	16%	-2.7%	?	7.0	-21
- O=C(NCCc1ccc(Cl)cc1)Nc1cccc(Cl)c1
 : ?	-40%[inhibitor]	29%	-1.3%	-1	1.3	-24
- Cc1ccc(C)c(NC(=S)NNC(=O)c2csc(C)c2)c1
 : -1%	1%	10%	6.2%	16	1.1	-38
- O=C1/C(=C/c2ccncc2)N=C2CCCCCN12
 : 11%	2%	-7%	0.7%	-5	0.5	-7
- CCn1cc(Br)c(C(=O)Nc2ccc(C(=O)OC(C)C)cc2)n1
 : -25%	-26%	-14%	-5.0%	-18	0.3	3
- Cc1cc(Cl)ccc1OCC(=O)NC1CCCC1
 : -5%	-63%[inhibitor]	13%	0.0%	-3	1.4	4
- O=C(c1ccc(C#CC2(O)CCCCC2)cc1)N1CCOCC1
 : 12%	24%	9%	-0.1%	-19	8.5	-13
- O=C(CSCc1ccc(Cl)cc1)Nc1nccs1
 : 3%	-1%	6%	-0.4%	-1	2.0	1
- O=C(NCc1ccccn1)c1ccc(OC2CCN(Cc3ccccc3)CC2)cc1
 : 7%	-26%	2%	-0.9%	9	/	0
- COc1ccc(S(=O)(=O)N(CC(=O)O)c2ccccn2)cc1
 : 6%	-9%[15.4 µM]	11%	-3.8%	0	7.1	-4
- COc1ccc(CCN(Cc2nc(-c3ccccc3)no2)Cc2nc(-c3ccccc3)no2)cc1OC
 : -9%	2%	13%	0.7%	1	1.1	-18

From PubChem BioAssay
